D2 potentiator = potentiates the human D2 dopamine receptor allosterically; DiscoveRx D2 beta-arrestin cells, luminescence, 90 min; 100% = 57 uM dopamine signal; potentiation, % (test concentration not listed); hit rate 0.23% among 360,000; AID 624464; active = potentiation of 50% or more; inconclusive = 30% to 50%; inactive = 30% or less;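 further: compound concentration not given in the record; tested on top of an EC20 dose of dopamine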
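PathHunter beta-arrestin assay in DiscoveRx D2 cells. Compounds were added with an EC20 of dopamine (50 nM final) for 90 min at 37 deg C. Luminescence was read 1 h after detection reagent, with 57 uM dopamine as the EC100 control.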
gsp antagonist = antagonizes gsp, the McCune-Albright syndrome mutation; gsp-mutant cells, cAMP HTRF, 30 min; control for the full effect not named in the record; hit rate 0.4% among 340,000; Potency, µM (series often up to 76.9 µM), for inactives: at the top dose activity change, negative = inhibition, usual class: inhibitors; AID 624288; active = falling curve of any shape with a large fitted effect; inconclusive = falling curve, mostly with a smaller effect; inactive = flat or rising curve; cell line not stated here;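 further: intracellular cAMP measured with PDE inhibitor Ro 20-1724 present during compound exposure; potency means the concentration at half of the fitted maximal effect; on the % scale 0 is the no-effect control and ±100 the full control effect; nearly all actives have a fitted effect of over 65% in size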
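Measurement of cellular cAMP by homogeneous time-resolved fluorescence following a 30 min compound exposure at 37C. The PDE inhibitor […] was present throughout; the assay buffer was DPBS with 0.05% BSA and 0.005% Tween 20.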
D2 agonist = activates the human D2 dopamine receptor; P14416; DiscoveRx PathHunter D2 beta-arrestin, luminescence, 90 min; 100% = 57 uM dopamine signal; activation, % (no concentration beside the values); hit rate 0.084% among 360,000; in the data active = activation above about 40%; inconclusive = about 15% to 40%; inactive = below about 15%; further: compound concentration not given in the record; the text of the record calls up to 30% inactive
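Agonist mode: compounds alone added to overnight-plated D2 PathHunter cells for 90 min at 37 C, with 57 uM final dopamine (EC100) defining full response. Beta-arrestin recruitment detected by chemiluminescent reagent, read after 1 h at ambient temperature.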
Six1-Eya2 blk = inhibitors of human Six1/Eya2 interaction; Q15475+O00167; AlphaScreen GST-Six1/His-Eya2 binding, biochemical; hits give low values; control for the full effect not named in the record; activity change, % (no concentration beside the values); hit rate 0.56% among 360,000; AID 651725; in the data active = activity change below about -65%; inconclusive = about -30% to -65%; inactive = above about -30%; further: on the % scale 0 is the no-effect control and ±100 the full control effect; compound concentration not given in the record
Target sequence (O00167 whole entry, looked up): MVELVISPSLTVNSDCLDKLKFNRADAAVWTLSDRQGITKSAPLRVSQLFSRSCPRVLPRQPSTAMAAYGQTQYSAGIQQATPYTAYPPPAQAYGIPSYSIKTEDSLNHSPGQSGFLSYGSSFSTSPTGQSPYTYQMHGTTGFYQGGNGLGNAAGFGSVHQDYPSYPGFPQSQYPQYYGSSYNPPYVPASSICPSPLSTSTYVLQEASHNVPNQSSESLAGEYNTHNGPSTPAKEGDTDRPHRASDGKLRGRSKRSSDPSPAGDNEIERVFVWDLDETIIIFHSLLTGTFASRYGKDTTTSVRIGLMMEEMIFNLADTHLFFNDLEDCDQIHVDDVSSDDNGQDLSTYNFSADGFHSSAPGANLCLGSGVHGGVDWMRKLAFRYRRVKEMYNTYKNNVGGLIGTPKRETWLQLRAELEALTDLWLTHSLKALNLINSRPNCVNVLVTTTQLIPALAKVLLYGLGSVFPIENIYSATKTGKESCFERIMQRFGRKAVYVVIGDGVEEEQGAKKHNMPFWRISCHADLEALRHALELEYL
Target sequence (Q15475 whole entry, looked up): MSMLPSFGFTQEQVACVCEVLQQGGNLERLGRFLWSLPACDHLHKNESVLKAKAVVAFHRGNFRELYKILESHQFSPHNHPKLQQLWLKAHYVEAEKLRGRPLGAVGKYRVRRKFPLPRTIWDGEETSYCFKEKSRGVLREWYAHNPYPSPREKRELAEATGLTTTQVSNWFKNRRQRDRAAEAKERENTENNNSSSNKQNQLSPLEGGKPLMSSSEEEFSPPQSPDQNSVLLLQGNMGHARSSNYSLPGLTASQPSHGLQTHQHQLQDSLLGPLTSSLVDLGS
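AlphaScreen luminescence read after one hour at 37 °C in darkness. Pin-transferred compounds met GST-Six1 and His-Eya2 protein (5X stock 250 nM/500 nM) plus glutathione donor and Ni-chelate acceptor beads (5X, 50 ug/mL).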
CtBP-E1A blk = CtBP/E1A binding inhibition; AlphaScreen GST-E1A/His-CtBP binding, 1536-well; hits give low values; control for the full effect not named in the record; activity change, % (test concentration not listed); hit rate 0.49% among 340,000; AID 651724; in the data active means activity change below about -65%; inconclusive means about -30% to -65%; inactive means above about -30%; further: on the % scale 0 is the no-effect control and ±100 the full control effect; compound concentration not given in the record
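AlphaScreen with 125 nM GST-E1A and 125 nM His-CtBP (5X stocks) in Tris pH 8.0, 300 mM NaCl, BSA, Tween 20, TCEP. Compounds preincubated 2 h at 37 deg C, then glutathione donor/nickel acceptor beads added for 1 h at 37 deg C in dark.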
gsp agonist = agonists of gsp mutant (McCune-Albright syndrome); gsp mutant cells, cAMP HTRF, 30 min; control for the full effect not named in the record; Potency, µM (doses to about 76.9 µM), without a hit: at the highest dose activation (cAMP increase), usual class: activators; hit rate 0.13% among 340,000; active = well fitted activation curve with a large enough effect; inconclusive = small, poorly fitted or top-dose-only effect, or another doubt; inactive = no such curve, though single readings can be large or run the other way; cell line not stated here;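 further: phosphodiesterase inhibitor Ro 20-1724 added with compounds to block cAMP breakdown; potency means the concentration at half of the fitted maximal effect; nearly all actives have a fitted effect of over 60% in size; about a fifth of the inactives were tested at one dose only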
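Cells in DMEM/10% FBS with G418 were pretreated with compounds in DMSO plus […] (300 uM stock) for 30 min at 37C. cAMP was measured by HTRF (cAMP-d2 plus anti-cAMP antibody-K) after 30 min at room temperature.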
Active calls of the source: *; [ ] = remark or other dose.

The opening 3 compounds, ahead of the listing:
Results for Cc1ccc2c(c1)CCCN2CC(=O)N(C)c1c(N)n(Cc2ccccc2)c(=O)[nH]c1=O ?
D2 potentiator: -13; gsp antagonist: 9%; D2 agonist: 1.6; Six1-Eya2 blk: -4; CtBP-E1A blk: -8; gsp agonist: 6%

Results for COc1ccc2c(c1)C1NC(=S)NC(C)(O2)C1C(=O)Nc1ccccc1C (stereo not given) ?
D2 potentiator: -10; gsp antagonist: 0%; D2 agonist: -4.6; Six1-Eya2 blk: 3; CtBP-E1A blk: -4; gsp agonist: 5%

What do the screens show for `CCn1c(SCC(=O)N2c3ccccc3CCc3ccccc32)nnc1-c1ccc(OC)cc1`?
D2 potentiator: -9; gsp antagonist: 9%; D2 agonist: -3.6; Six1-Eya2 blk: -17; CtBP-E1A blk: -10; gsp agonist: -33%[inhibitor]

The whole of this part (from the top)
Results for Cc1ccc2c(c1)CCCN2CC(=O)N(C)c1c(N)n(Cc2ccccc2)c(=O)[nH]c1=O ?
D2 potentiator: -13; gsp antagonist: 9%; D2 agonist: 1.6; Six1-Eya2 blk: -4; CtBP-E1A blk: -8; gsp agonist: 6%

Results for COc1ccc2c(c1)C1NC(=S)NC(C)(O2)C1C(=O)Nc1ccccc1C (stereo not given) ?
D2 potentiator: -10; gsp antagonist: 0%; D2 agonist: -4.6; Six1-Eya2 blk: 3; CtBP-E1A blk: -4; gsp agonist: 5%

What do the screens show for `CCn1c(SCC(=O)N2c3ccccc3CCc3ccccc32)nnc1-c1ccc(OC)cc1`?
D2 potentiator: -9; gsp antagonist: 9%; D2 agonist: -3.6; Six1-Eya2 blk: -17; CtBP-E1A blk: -10; gsp agonist: -33%[inhibitor]

What do the screens show for `CC(NC(=O)c1ccco1)C(=O)OC(C)C(=O)NCc1ccccc1` (stereo not given)?
D2 potentiator: 0; gsp antagonist: 2%; D2 agonist: -1.5; Six1-Eya2 blk: -5; CtBP-E1A blk: 0; gsp agonist: 7%[15.4 µM]

How did C=CCSc1nc(NC)c2sccc2n1 do in these assays?
D2 potentiator: -10; gsp antagonist: 7%; D2 agonist: -1.9; Six1-Eya2 blk: 3; CtBP-E1A blk: 6; gsp agonist: 6%

What do the screens show for `CCOC(=O)C1C(=O)CC(C)(O)C(C(=O)OCC)C1c1ccc(C)s1` (stereo not given)?
D2 potentiator: -1; gsp antagonist: -8%; D2 agonist: -2.4; Six1-Eya2 blk: 1; CtBP-E1A blk: 7; gsp agonist: inconclusive

How did CN(C)S(=O)(=O)c1ccc(NC(=O)C2CC3C=CC2C3)cc1 (stereo not given) do in these assays?
D2 potentiator: -13; gsp antagonist: 6%; D2 agonist: -2.7; Six1-Eya2 blk: 1; CtBP-E1A blk: 0; gsp agonist: 19%

Results for CN(CC(=O)Nc1cccc(F)c1)C(=O)c1cn(-c2ccccc2)nc1-c1ccc(Cl)cc1 ?
D2 potentiator: -10; gsp antagonist: inconclusive; D2 agonist: -4.5; Six1-Eya2 blk: -3; gsp agonist: 23%

Results for O=C(COc1ccc(Br)cc1Br)NC1CCS(=O)(=O)C1 (stereo not given) ?
D2 potentiator: -10; gsp antagonist: 11%; D2 agonist: -7.6; Six1-Eya2 blk: -1; CtBP-E1A blk: 13; gsp agonist: inconclusive

How did Cc1ccccc1-c1nsc(SCC(=O)NCc2ccc3c(c2)OCO3)n1 do in these assays?
D2 potentiator: -21; gsp antagonist: 0%; D2 agonist: -4.0; Six1-Eya2 blk: -5; CtBP-E1A blk: -1; gsp agonist: 6%

What do the screens show for `CCCn1c(=O)[nH]c(=O)c2c1nc(-c1ccc(C#N)cc1)n2CCOC`?
D2 potentiator: -3; gsp antagonist: -5%; D2 agonist: -0.3; Six1-Eya2 blk: 6; CtBP-E1A blk: 3; gsp agonist: inconclusive

How did O=C(Nc1cc(S(=O)(=O)N2CCOCC2)ccc1Cl)c1cc([N+](=O)[O-])ccc1Cl do in these assays?
D2 potentiator: 6; gsp antagonist: 12%; D2 agonist: inconclusive; Six1-Eya2 blk: -3; CtBP-E1A blk: -1; gsp agonist: 6%

How did Cc1c(C(=O)NCC(c2ccco2)N(C)C)oc2c(Cl)cccc12 (stereo not given) do in these assays?
D2 potentiator: -27; gsp antagonist: -4%; D2 agonist: -5.2; Six1-Eya2 blk: -9; CtBP-E1A blk: -1; gsp agonist: 12%[15.4 µM]

How did Cc1nc2c(C#N)c[nH]n2c(=O)c1Cc1ccccc1 do in these assays?
D2 potentiator: 12; gsp antagonist: -11%; D2 agonist: -3.7; Six1-Eya2 blk: -15; CtBP-E1A blk: -10; gsp agonist: 1%

What do the screens show for `CC1S/C(=N/N=C2CCC(C(C)(C)C)CC2)NC1=O` (stereo not given)?
D2 potentiator: -15; gsp antagonist: 7%; D2 agonist: -1.6; Six1-Eya2 blk: 2; CtBP-E1A blk: 9; gsp agonist: -13%

Results for CCOc1cccc(C(=O)Nc2ccc(N3CCCC3)cc2)c1 ?
D2 potentiator: -10; gsp antagonist: -5%; D2 agonist: -0.5; Six1-Eya2 blk: inconclusive; CtBP-E1A blk: inconclusive; gsp agonist: 13%

How did CN1CCN(c2ccc(Cl)cc2NC(=O)c2ccc(S(=O)(=O)N3CCCCCC3)cc2)CC1 do in these assays?
D2 potentiator: 2; gsp antagonist: 17%; D2 agonist: -0.1; Six1-Eya2 blk: -5; CtBP-E1A blk: -3; gsp agonist: -10%

How did Cc1cc(C(=O)OC(C(=O)Nc2cccc(C(F)(F)F)c2)c2ccccc2)c(C)o1 (stereo not given) do in these assays?
D2 potentiator: -1; gsp antagonist: -1%; D2 agonist: -2.3; Six1-Eya2 blk: -1; CtBP-E1A blk: 4; gsp agonist: -39%[inhibitor]

Results for CC(C)C(=O)Nc1cccc(NC(=O)CCN2C(=O)c3ccccc3S2(=O)=O)c1 ?
D2 potentiator: -1; gsp antagonist: 4%; D2 agonist: -2.3; Six1-Eya2 blk: -10; CtBP-E1A blk: -16; gsp agonist: 12%

How did COc1ccccc1N1CCN(S(=O)(=O)CCNC(=O)c2ccccc2Br)CC1 do in these assays?
D2 potentiator: -22; gsp antagonist: -4%; D2 agonist: -3.3; Six1-Eya2 blk: -2; CtBP-E1A blk: -8; gsp agonist: -52%[inhibitor]

How did COc1ccc(C(=O)N2CCCc3ccccc32)cc1Br do in these assays?
D2 potentiator: -6; gsp antagonist: -25%; D2 agonist: 0.8; Six1-Eya2 blk: -20; CtBP-E1A blk: -2; gsp agonist: 3%[15.4 µM]

How did CCCN(C(=O)CSc1nc(C2CC2)n(-c2ccccc2)n1)C1CCS(=O)(=O)C1 (stereo not given) do in these assays?
D2 potentiator: -4; gsp antagonist: 1%; D2 agonist: 0.1; Six1-Eya2 blk: -1; CtBP-E1A blk: -22; gsp agonist: 19%

How did Cc1ccc(N(CC(=O)NC2CC3CCC2C3)S(C)(=O)=O)cc1C (stereo not given) do in these assays?
D2 potentiator: 11; gsp antagonist: 3%; D2 agonist: -1.1; Six1-Eya2 blk: -2; CtBP-E1A blk: -5; gsp agonist: 15%

What do the screens show for `O=C(OCc1ccccc1)N1CCCCC1c1c(Cl)cccc1Br` (stereo not given)?
D2 potentiator: -4; D2 agonist: 3.2; Six1-Eya2 blk: 26; CtBP-E1A blk: 33

The last two records of the part above come first, to join the parts:
How did Cc1ccc(N(CC(=O)NC2CC3CCC2C3)S(C)(=O)=O)cc1C (stereo not given) do in these assays?
D2 potentiator: 11; gsp antagonist: 3%; D2 agonist: -1.1; Six1-Eya2 blk: -2; CtBP-E1A blk: -5; gsp agonist: 15%

What do the screens show for `O=C(OCc1ccccc1)N1CCCCC1c1c(Cl)cccc1Br` (stereo not given)?
D2 potentiator: -4; D2 agonist: 3.2; Six1-Eya2 blk: 26; CtBP-E1A blk: 33

What do the screens show for `Cc1cccc(NC(=O)/C=C/c2ccc(Cl)cc2)n1`?
D2 potentiator: -13; gsp antagonist: -14%; D2 agonist: -2.4; Six1-Eya2 blk: 12; CtBP-E1A blk: 0; gsp agonist: 23%

What do the screens show for `CC(C)(C)c1ccc(-c2nnc(SCC(=O)NC3CC3)o2)cc1`?
D2 potentiator: -6; gsp antagonist: -7%; D2 agonist: -2.8; Six1-Eya2 blk: 2; gsp agonist: 21%

Results for COC(=O)c1cccc(NC(=O)C23CC4CC(C2)CC(n2cncn2)(C4)C3)c1 ?
D2 potentiator: -10; gsp antagonist: -10%; D2 agonist: -3.9; Six1-Eya2 blk: 0; CtBP-E1A blk: -1; gsp agonist: -50%[inhibitor]

Results for Cc1nn(C2CC(O)C(O)C(CO)O2)c(=O)[nH]c1=O (stereo not given) ?
D2 potentiator: -12; gsp antagonist: 7%; D2 agonist: 1.2; Six1-Eya2 blk: 13; CtBP-E1A blk: -14; gsp agonist: 2%

What do the screens show for `CCOC(=O)c1[nH]c2ccc(OC)cc2c1NC(=S)N1CCN(c2cccc(Cl)c2)CC1`?
D2 potentiator: -16; gsp antagonist: -14%; D2 agonist: 1.1; Six1-Eya2 blk: -9; CtBP-E1A blk: -14; gsp agonist: -2%

How did CC(=O)c1ccc(NC(=O)CN2CCCC2)cc1 do in these assays?
D2 potentiator: -8; gsp antagonist: 1%; D2 agonist: -3.9; Six1-Eya2 blk: -23; CtBP-E1A blk: -16; gsp agonist: -5%

What do the screens show for `CC(Sc1ccc2ccccc2c1)C(=O)NC(N)=O` (stereo not given)?
D2 potentiator: 0; gsp antagonist: -10%; D2 agonist: -2.0; Six1-Eya2 blk: -4; CtBP-E1A blk: -8; gsp agonist: -4%[15.4 µM]

How did Cn1ncc([N+](=O)[O-])c1C(=O)N/N=C/c1ccc(F)cc1 do in these assays?
D2 potentiator: -8; gsp antagonist: -13%; D2 agonist: -6.7; Six1-Eya2 blk: 0; CtBP-E1A blk: 1; gsp agonist: 2%

What do the screens show for `COc1cc(/C=N/N2CCN(Cc3ccccc3)CC2)cc(OC)c1OC(C)=O`?
D2 potentiator: -17; gsp antagonist: 6%; D2 agonist: 10.0; Six1-Eya2 blk: -13; CtBP-E1A blk: -15; gsp agonist: -48%[inhibitor]

What do the screens show for `CC(C)C(=O)c1cn(CC(=O)NCc2ccco2)c2ccccc12`?
D2 potentiator: -6; gsp antagonist: 5%; D2 agonist: -2.1; Six1-Eya2 blk: -3; CtBP-E1A blk: -1; gsp agonist: -9%

Results for N#CCCn1cc(C(=O)CN2C(=O)NC3(CCCCCC3)C2=O)c2ccccc21 ?
D2 potentiator: -17; gsp antagonist: 1%; D2 agonist: 3.0; Six1-Eya2 blk: 7; CtBP-E1A blk: -20; gsp agonist: 11%

Results for Cc1cccc2sc(N(CCCN3CCOCC3)C(=O)CS(=O)(=O)c3ccc(F)cc3)nc12 ?
D2 potentiator: -3; gsp antagonist: -15%; D2 agonist: -1.4; Six1-Eya2 blk: -10; CtBP-E1A blk: 6; gsp agonist: 2%[15.4 µM]

What do the screens show for `Cc1c(NS(=O)(=O)c2ccc3[nH]c(=O)[nH]c3c2)c(=O)n(-c2ccccc2)n1C`?
D2 potentiator: -5; gsp antagonist: 4%; D2 agonist: -0.6; Six1-Eya2 blk: 1; CtBP-E1A blk: -19; gsp agonist: 8%
